# miR-21 FLuc = raises the signal of a miR-21 reporter; AID 2288; HeLa miR-21 FLuc reporter, luciferase, 48 h; Potency, µM (titrated, usually from 38.3 µM), inactives show top-dose reporter change, positive = more light; 340,000 tested, under 10 active; active = well fitted rising curve with a large enough effect; inconclusive = small, poorly fitted or top-dose-only effect; inactive = no such curve, though single readings can be large or run the other way;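 further: % of control where 0% means no effect; miR-21 action dims this reporter so a rising signal means less miR-21 action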
#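 Using DMEM plus 10% FBS, HeLa miR-21-FLuc cells are incubated with test compounds (final up to about 40uM) for 48 hours; firefly luciferase signal is then imaged following reagent-mediated lysis.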
# Numbers without * were called inactive; ? = inconclusive.
miR-21 FLuc	molecule
11.6%	Cc1ccc(C)c(N2CCN(C(=O)c3c(C)oc4nc(C)nc(N5CCOCC5)c34)CC2)c1
-7.8%	Cc1ccc(C(=O)c2oc3ccccc3c2NC(=O)c2nc(S(C)(=O)=O)ncc2Cl)cc1F
-0.5%	Cc1ccccc1CSc1nc2c(sc3ccccc32)c(=O)n1CCCC(=O)NCCCOC(C)C
-38.1%	Cc1ccc2nc(-c3c[nH]c4ccccc34)c(Nc3ccc(F)cc3)n2c1
10.3%	O=S(=O)(c1ccc2[nH]c3c(c2c1)CCCCC3)N1CCN(c2ccccc2)CC1
-7.8%	CCC(Sc1nnc(C)n2c1cc1occc12)C(=O)Nc1ccccc1OC (stereo not given)
-3.5%	CCOC(=O)C1CCN(CCC(=O)Nc2ccc(OC)cc2)CC1
-11.3%	Cc1ccnc(NS(=O)(=O)c2ccc(NC(=O)c3nc(SC(C)C)ncc3Cl)cc2)n1
-4.3%	Cc1cccc(NC(=O)Cn2ncc3c4ccccc4n(Cc4ccccc4)c3c2=O)c1C
0.4%	COc1ccc(-n2nnc(-c3nc(-c4ccccc4C)no3)c2N)cc1Cl
-9.1%	Cc1ccc(S(=O)(=O)NCC(c2ccc(N(C)C)cc2)N2CCCC2)cc1 (stereo not given)
?	CCC(C)S(=O)(=O)c1oc(-c2cccs2)nc1S(=O)(=O)c1ccccc1 (stereo not given)
-3.4%	Cc1cccc(C)c1-n1ncc(C(=O)Nc2ccc3c(c2)OCO3)c1C1CCN(C(=O)OC(C)(C)C)CC1
2.0%	CCC(=O)N1CCc2cc(Br)cc(S(=O)(=O)Nc3ccccc3C(=O)OC)c21
25.6%	CCOCCCNC(=O)C(c1ccc(Cl)cc1)N(Cc1ccc2c(c1)OCO2)C(=O)c1ccc(NC(C)=O)cc1 (stereo not given)
-9.5%	COc1cccc(C(=O)Nc2ccccc2C(=O)OCc2cc(=O)n3c4c(sc3n2)CCCC4)c1
-1.2%	Cc1ccc(C)c(N2CCN(C(=O)c3ccc(-c4nc(COc5ccccc5)c(C)o4)cc3)CC2)c1
6.6%	Cc1nn(C)c2c1c(C(F)(F)F)cc(=O)n2C(C)C(=O)NCCc1ccccc1 (stereo not given)
-1.6%	CCN(CCCNC(=O)c1nn(-c2ccc(C)cc2)c(=O)c2c1c1ccccc1n2C)c1ccccc1
-11.2%	COc1ccccc1Cn1cc(C(=O)c2ccc(C)cc2)c(=O)c2cc(C)ccc21
-1.3%	Cc1ccccc1C(=O)NNc1ncnc2c1cnn2-c1cccc(Cl)c1
-8.4%	CCc1ccccc1NC(=O)Nc1cc(C(=O)NCc2ccc(C)cc2)ccc1N1CCCC1
-6.8%	Cc1ccccc1OCCSc1nc2ccc(NC(=O)c3cccc(F)c3)cc2s1
2.4%	COc1cc(C2C(=O)N(C3CCCCCC3)CC(=O)N2Cc2ccccc2)ccc1OC(C)C (stereo not given)
-3.5%	CC1CCCCN1CCCNC(=O)c1sc2ncccc2c1-n1cccc1 (stereo not given)
-7.1%	COc1ccc2nc3oc(C(=O)Nc4cccc(C(F)(F)F)c4)cc3cc2c1
-2.4%	Cc1ccc(-n2nc(C(=O)N3CCC(C)CC3)c(=O)n(C)c2=O)cc1
-2.6%	CCc1cnc2c(c1SCc1ccccc1C)c(=O)n(C)c(=O)n2C
14.6%	CCc1ccccc1N1C(=O)N(Cc2ccc(C#N)cc2)c2ccccc2S1(=O)=O
-15.6%	Cc1ccccc1OCC(=O)Nc1nnc(S(=O)(=O)N2CCCCCC2)s1

# Reprinted from the part before: seven compounds, followed by the next part.
miR-21 FLuc	molecule
2.4%	COc1cc(C2C(=O)N(C3CCCCCC3)CC(=O)N2Cc2ccccc2)ccc1OC(C)C (stereo not given)
-3.5%	CC1CCCCN1CCCNC(=O)c1sc2ncccc2c1-n1cccc1 (stereo not given)
-7.1%	COc1ccc2nc3oc(C(=O)Nc4cccc(C(F)(F)F)c4)cc3cc2c1
-2.4%	Cc1ccc(-n2nc(C(=O)N3CCC(C)CC3)c(=O)n(C)c2=O)cc1
-2.6%	CCc1cnc2c(c1SCc1ccccc1C)c(=O)n(C)c(=O)n2C
14.6%	CCc1ccccc1N1C(=O)N(Cc2ccc(C#N)cc2)c2ccccc2S1(=O)=O
-15.6%	Cc1ccccc1OCC(=O)Nc1nnc(S(=O)(=O)N2CCCCCC2)s1
-1.1%	CCC(=O)Nc1ccc(CC)cc1-c1nc2ccccc2n(CC(=O)Nc2cccc(Cl)c2)c1=O
3.8%	O=C(Cn1c(SCc2cccc(F)c2)nc2cccnc21)Nc1ccc(F)c(Cl)c1
-18.8%	CCc1ccc(-c2nc3cc(NC(=O)c4cc5ccccc5cc4OC)ccc3o2)cc1
1.3%	COC(=O)c1cc(NC(=O)c2nn(C)c3c2COc2ccccc2-3)cc(C(=O)OC)c1
1.8%	COc1ccc(-c2noc(N3CCC(C(=O)N4CCN(c5ccccc5F)CC4)CC3)n2)cc1
-5.6%	Oc1c(C(c2ccccc2)N2CCN(c3ccccc3)CC2)sc2nc(-c3ccco3)nn12 (stereo not given)
0.4%	Cc1ccc(N2CC(NC(=O)c3ccc4c(c3)OCO4)CC2=O)cc1 (stereo not given)
-7.3%	C=Cc1ccc(Cn2c(=O)n(CC3CCC(C(=O)NC(C)C)CC3)c(=O)c3sccc32)cc1 (stereo not given)
-32.1%	Cc1ccc(NC(=O)c2cc3c([nH]c2=O)CC(C)(C)CC3=O)c(C)c1
?	N#Cc1c[nH]n2c(NC3CCCC3)c(-c3ccc(Cl)cc3)nc12
8.7%	CC(=O)c1ccc(NC(=O)CSc2nc(-c3ccccc3C)nc3c2c(=O)n(C)c(=O)n3C)cc1
3.6%	CC(NC(=O)C1CCN(c2nc3ccccc3nc2C(F)(F)F)CC1)c1ccccc1 (stereo not given)
0.2%	O=C(COc1ccccc1Cl)OCc1cc(=O)n2nc(C3CC3)sc2n1
-6.7%	CCCCN(CC)CCCNC(=O)c1sc2nc3n(c(=O)c2c1C)CCCCC3
29.4%	COc1ccc(CNC(=O)c2ccc3c(c2)N(Cc2c(F)cccc2Cl)C(=O)CS3)cc1
16.0%	Cc1ccc(-c2nnc(Nc3ccc(O)cc3)c3ccccc23)cc1S(=O)(=O)N1CCOCC1
-2.3%	CCOc1ccccc1C1C(C(=O)Nc2ccccc2OC)=C(C)Nc2nc3ccccc3n21 (stereo not given)
-64.4%	CCc1ccc(-c2[nH]nc3nc(-c4cc(OC)ccc4OC)cc(C(=O)O)c23)cc1
7.9%	CC1=C(C(=O)Nc2ccccc2C)C(c2cccnc2)n2nc(SCc3ccccc3F)nc2N1 (stereo not given)
23.9%	COc1ccccc1-c1cc2nc(C)c(CCC(=O)Nc3ccc(Br)c(C)c3)c(C)n2n1
-10.7%	COc1ccc(-n2ncc3c(NCCCOC(C)C)ncnc32)cc1
-2.0%	Cc1cccc(C(=O)NCc2cn3cccc(C)c3n2)c1
-4.1%	Cc1cc(C(=O)C(=O)Nc2nnc(C(C)C)s2)c(C)n1-c1ccccc1
0.2%	O=C(Nc1cc2c(cc1C(=O)c1ccccc1Cl)OCCO2)c1ccccc1
-0.5%	Cc1ccc2c(c1)cc1c(=O)n(CC(=O)NCc3ccco3)nc(C)n12
17.5%	CCOc1ccc(CCNc2ncnc3onc(-c4ccc(Cl)cc4)c23)cc1OCC
16.0%	Cc1ccc2occ(CC(=O)N(Cc3ccc(Cl)cc3)Cc3ccco3)c2c1
11.5%	O=C(C1CCC1)N1CCc2cc(S(=O)(=O)NCCc3ccccc3)ccc21
0.7%	Cc1ccc(Cl)cc1-n1c(=O)cc(N2CCN(c3ccc(F)cc3)CC2)[nH]c1=O
-9.8%	Cc1cccc(-c2nc3c4ccccc4n(CC(=O)Nc4cc(F)ccc4F)c(=O)n3n2)c1

# Part of the list above in a different format.
SMILES,miR-21 FLuc
CC(NC(=O)C1CCN(c2nc3ccccc3nc2C(F)(F)F)CC1)c1ccccc1 (stereo not given),3.6%
COc1ccc(CNC(=O)c2ccc3c(c2)N(Cc2c(F)cccc2Cl)C(=O)CS3)cc1,29.4%
Cc1ccc(N2CC(NC(=O)c3ccc4c(c3)OCO4)CC2=O)cc1 (stereo not given),0.4%

# The listing continues.
miR-21 FLuc	molecule
-2.5%	Cc1ccc(CN2CCc3nc(N4CCN(c5ccccc5F)CC4)ncc3C2)cc1C
-5.3%	CCc1nnc(SCc2cccc(F)c2)c2cc3sc(C)cc3n12
-8.7%	CCCCOc1ccccc1Cn1c(=O)sc2ccccc21
12.4%	COc1cccc(CNS(=O)(=O)c2ccc(N3CCCCS3(=O)=O)cc2)c1
-1.0%	Cc1ccc(-c2cc(C(F)(F)F)n3nc(C(=O)Nc4ccc(C#N)cc4)cc3n2)cc1
-11.0%	COc1ccc(C2CC(=O)c3c([nH]c(C(=O)OCc4ccccc4)c3C)C2)cc1 (stereo not given)
4.6%	CCc1nn(Cc2cccc(F)c2)c(=O)c2cc3cc(C)ccc3n12
-9.7%	Cc1cccc(NC(=O)Cn2c(=O)n(CCc3ccccc3)c(=O)c3ccccc32)c1
-1.5%	CCc1ccc(NC(=O)Cn2c(=O)n(CCC(=O)NCCc3ccc(Cl)cc3)c(=O)c3ccccc32)cc1
-15.6%	CCCCNC(=O)CCCn1c(=O)c2ccccc2n(Cc2cccc(Cl)c2)c1=O
4.1%	COc1ccc(C(=O)N2CCN(Cc3cc(=O)n4nc(-c5ccccc5C)sc4n3)CC2)cc1OC
14.7%	COc1cccc(-c2nc(SCc3cc(=O)c4ccc(C)c(C)c4[nH]3)n[nH]2)c1
5.4%	CCCC(=O)Nc1cc(C)c(O)c(-c2nc3ncccc3o2)c1
-1.3%	Cc1ccc(Nc2nc3ccccc3nc2-n2nc(C)cc2C)c(Cl)c1
4.4%	CCOC(=O)Cn1c(=O)n(-c2ccccc2OC)c2nc(-c3ccccc3C)nc(C(N)=O)c21
-0.2%	Cc1nn(S(=O)(=O)c2ccc(F)cc2)c(C)c1S(=O)(=O)N1CCC(C)CC1
-1.5%	O=C(Cn1ncc2c3ccccc3n(Cc3cccc(Cl)c3)c2c1=O)NC1CCCCCC1
0.2%	CC(=O)Nc1ccc(S(=O)(=O)NC2(C(F)(F)F)C(=O)Nc3c2c(=O)[nH]c(=O)n3-c2ccc(C)c(C)c2)cc1 (stereo not given)
-2.9%	COc1cccc(NC(=O)Cn2c(=O)n(-c3cccc(OC)c3)c(=O)c3c4c(sc32)CCCC4)c1
-2.5%	Cc1ccc2c(c1)c(=O)c(C(=O)c1ccncc1)cn2CC(=O)Nc1ccccc1Cl
29.3%	Cc1cccc(N2CCN(S(=O)(=O)c3ccc4c(c3)C(C(C)C)C(=O)N4)CC2)c1C (stereo not given)
-0.1%	CCOC(=O)Cn1c(=O)oc2cc(S(=O)(=O)N3CCN(c4cccc(C)c4C)CC3)ccc21
-6.3%	CNC(=O)c1sc2ncccc2c1-n1cccc1
-2.5%	CCOc1ccc(-c2cc(C(=O)NCc3ccc(C)cc3)c3ccccc3n2)cc1
-2.5%	Cc1ccc(C)c(N2CCN(C(=O)c3ccc(CS(=O)(=O)c4ccc(Br)cc4)o3)CC2)c1
-3.8%	CC(=O)c1ccc(NC(=O)CSc2nc(=O)n(Cc3ccncc3)c3c2CCC3)cc1
24.0%	CCCCNC(=O)CN1C(=O)c2c(c3ccccc3n2C)C1c1ccc(OC)cc1 (stereo not given)
-0.8%	Cc1ccc(C(C)C)c(OCC(=O)Nc2c(C(=O)c3ccccc3)oc3ccccc23)c1
6.6%	CCN(CC)C(=O)c1sc2c(c1C)c(=O)n(-c1ccc(C)c(C)c1)c(=O)n2CC(=O)Nc1ccc(OC)cc1OC
-23.7%	CCCOc1ccc(-c2cccc(NS(=O)(=O)c3cccs3)c2)nn1
-4.6%	COc1ccc(NC(=O)Cn2c(=O)n(-c3ccc(C)c(C)c3)c(=O)c3c4c(sc32)CCCCC4)cc1Cl
-0.1%	Cc1ccc2c(=O)c(C(=O)c3ccc(Cl)cc3)cn(CC(=O)NC3CCCCC3)c2n1
-1.9%	CCc1ccc(C2=C(C)C(N3CCC(C(=O)NCc4ccc(C)o4)CC3)=NS2(=O)=O)cc1
-1.5%	COc1ccc2c(c1)sc1ncc(C(=O)NCc3cccc(Cl)c3)c(=O)n12
-4.3%	CCOc1ccc(-n2c(SCC(=O)c3ccccc3)nc3c([nH]c4ccccc43)c2=O)cc1
?	COc1ccc2nc(NC(=O)c3nc(S(=O)(=O)Cc4ccccc4F)ncc3Cl)sc2c1
?	CS(=O)(=O)c1oc(-c2ccc(F)cc2)nc1S(=O)(=O)c1ccc(Cl)cc1
2.2%	CCOc1ccc(NS(=O)(=O)c2ccc3[nH]c4c(c3c2)CCCC4)cc1
-8.5%	COc1ccc(NC(=O)c2ccc3c(c2)nnn3C2CCCC2)cc1Cl
?	CCC(Cn1nnc2ccccc2c1=O)NC(=O)Nc1cc(Cl)ccc1OC (stereo not given)
-1.4%	COc1ccc2c(c1)c1c(c(=O)n(-c3ccc(C)cc3)c(=O)n1CC(=O)c1ccc(Cl)cc1)n2C
-0.7%	Cc1c(Cl)cccc1-n1nc(C)c2c(C)cc(=O)n(CC(=O)NCc3ccccc3)c21
-5.0%	Cc1cccc(Nc2ncnc3onc(-c4ccc(Cl)cc4)c23)c1C
-3.4%	COc1ccc(C(=O)N(Cc2ccco2)Cc2ccc(C)o2)cc1
-5.9%	Cc1ccc(S(=O)(=O)N2CCC(c3nnc(-c4cccc(C)c4)o3)CC2)cc1
4.0%	Cc1cc(S(=O)(=O)NCC(c2ccco2)S(=O)(=O)c2ccccc2)ccc1F (stereo not given)
-0.8%	Cc1cc(Cl)ccc1NC(=O)C1CCN(S(=O)(=O)c2ccc3[nH]c(=O)ccc3c2)CC1
-3.7%	CC(=O)N1CCCc2cc(S(=O)(=O)NCc3ccccc3Cl)ccc21
18.5%	CCc1ccccc1NC(=O)N1CCc2c([nH]c3ccccc23)C1c1ccc(C)cc1 (stereo not given)
0.8%	COc1ccc(NC(=O)c2c(NC(=O)c3ccncc3)sc3c2CCC(C(C)(C)C)C3)cc1 (stereo not given)

# Compound activity from PubChem.

# Some of the compounds tested (hit frequency here may not be typical).
